Biofilm kill mix = mixtures killing C. albicans biofilm. 120,000 tested, 0.02% active. inhibition, % at 7.6 µM. C. albicans biofilm persisters + clotrimazole, fluorescence viability; primary screen in compound mixtures of four per well. AID 1242;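 active means inhibition above 30.3% in the primary screen of four-compound pools, then above 30% when the compound was retested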;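 further: compounds exposed to preformed 24 h biofilms for 48 h; the number belongs to the whole pool; some results filed as inactive read as strong as hits; inactives centre near 12; 0% = biofilm with clotrimazole alone and 100% = kill control; retested singly at about 60 µM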
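Assay system: C. albicans biofilms / Medium: RPMI/MOPS medium, pH 7.0 / Schedule: biofilm formation 24 h, compound exposure 48 h, 37 °C / Measured by: Alamar Blue fluorescence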
* marks the source's active call; other numbers are inactive results. An excerpt; count on the stated rates, not on these rows.

SMILES | Biofilm kill mix
Cc1cc(C)c2nncn2n1 | 17
O=C(CCc1nnc(-c2ccc3c(c2)OCO3)o1)N1CCC(c2ccc(F)cc2)C1 (configuration not stated) | 12
COc1ccc(-n2c(=O)c3c4c(sc3n3c(=S)[nH]nc23)COC(C(C)C)C4)cc1 (configuration not stated) | 10
Cc1cccc(C)c1NC(=O)COC(=O)c1ccc2c(c1)OCO2 | 5
CCOC(=O)c1[nH]cnc1C(=O)Nc1cccc(OC)c1 | 33
CCCCc1nnc(NC(=O)C(=O)OCC)s1 | 5
CCOC(=O)C1=C(N)OC2=C(C(=O)CCC2)C1c1sccc1C (configuration not stated) | 17
Clc1cc2c(c(CSc3nc4ccccc4n4cccc34)c1)OCOC2 | 16
CCOc1ccc(/C=N/NC(=O)c2c(C)n(C)c3ccc(OC)cc23)cc1 | 4
O=C(NC(=S)Nc1ccccc1N1CCCC1)c1ccco1 | 19
C[C@@H](C(=O)Nc1nc2ccc(F)cc2s1)N1C(=O)C2CC=CCC2C1=O (some centres not stated) | 9
COc1ccccc1-n1ccnc1SCC(=O)NC1CCCC1 | 16
COc1cc(C#N)ccc1OCC(=O)Nc1ccc(C)c(S(=O)(=O)N2CCOCC2)c1 | 16
O=C(N/N=C/c1ccco1)c1ccc(NC(=O)c2ccccc2Cl)cc1 | 14
Cc1nn(-c2ccccc2)c(C)c1NC(=O)COc1ccc(Cl)cc1Cl | 12
NC(=O)[C@H]1CC2(CC(c3cccc(NC(=O)COc4ccc(Cl)cc4)c3)=NO2)CN1C(=O)[C@H]1CCC(=O)N1 (some centres not stated) | 18
CC(C)Cn1c(N2CCN(C(=O)/C=C/c3ccccc3)CC2)nc2ccccc21 | 18
O=C(NCCC1=CCCCC1)C1CCN(S(=O)(=O)c2ccccc2)CC1 | 9
COc1ccc(-c2nn(CCC#N)cc2/C=N/O)cc1 | -1
Cc1[nH]n(-c2ccccc2)c(=O)c1C=NCCc1ccccc1 | 18
C=CCn1c(-c2cccc(OC)c2)n[nH]c1=S | 19
COc1ccc(-c2nnc(SCC3CCCO3)n2C)cc1 (configuration not stated) | -3
CCOC(=O)C1=NN(c2ccccc2)C(c2ccccc2)CC1=O (configuration not stated) | 14
CN(C)N1C(=O)CC(N2CCCCC2)C1=O (configuration not stated) | 13
Cc1nn(C)cc1CN1CCC(CO)(CCOc2ccccc2)CC1 | 10
Cc1ccc(CSCc2ccc(C(=O)NCC3CCCO3)o2)cc1 (configuration not stated) | 14
Cc1cc(N)n(-c2nc3ccccc3s2)n1 | 15
O=C(COCC(=O)N/N=C/c1ccccc1F)N/N=C/c1ccccc1F | 16
O=C(NCCc1ccccn1)c1cc(-c2cccc3ccccc23)nc2ccccc12 | 5
CCCCC(=O)Nc1ccc(NC(=O)c2ccccc2[N+](=O)[O-])cc1OC | 6
CCC1CCCCN1C(=O)c1sc2nc(C)nc(N(CC)CC)c2c1C (configuration not stated) | 2
COc1ccc(C(=O)NCCc2cc3c(OC)ccc(OC)c3[nH]c2=O)cc1OC | 8
COc1ccc(Cc2noc(CN(C)CC3(N4CCOCC4)CCCCC3)n2)cc1OC | 5
COc1ccc(C(=O)N/N=C2\SCC(=O)N2Cc2ccc3c(c2)OCO3)c(OC)c1 | 23
CC(=O)CSc1nc(-c2cccs2)c(C#N)c(=O)[nH]1 | 15
CCN1C/C(=C/c2ccc(OC)c(O)c2)C(=O)/C(=C/c2ccc(OC)c(O)c2)C1 | 8

A different layout for 3 compounds above.
| Molecule | Biofilm kill mix |
| --- | --- |
| COc1ccc(Cc2noc(CN(C)CC3(N4CCOCC4)CCCCC3)n2)cc1OC | 5 |
| COc1ccc(C(=O)N/N=C2\SCC(=O)N2Cc2ccc3c(c2)OCO3)c(OC)c1 | 23 |
| CC(=O)CSc1nc(-c2cccs2)c(C#N)c(=O)[nH]1 | 15 |

Next structures follow.
SMILES | Biofilm kill mix
O=C(NC1CCS(=O)(=O)C1)/C(=C/c1ccco1)NC(=O)c1ccccc1 (configuration not stated) | 15
CCOC(=O)c1c(NC(=O)c2ccc(N3C(=O)[C@@H]4[C@H](C3=O)[C@H]3C=C[C@@H]4C3)cc2)sc2c1CCCC2 | 3
C[C@H]1C[C@@H]2[C@H]([C@@H](O)C[C@@]3(C)[C@H]2CC[C@]3(O)C(=O)CO)[C@@]2(C)C=CC(=O)C=C12 | 5
CC(NC(=S)NCCc1ccccc1)C(c1cccs1)N1CCN(C)CC1 (configuration not stated) | -5
COC(=O)C1=C(COc2ccccc2)NC(=O)NC1c1ccc(Br)cc1 (configuration not stated) | 2
COc1cc2c3c(c1OC)C1(C=CC(=O)C=C1)CC3N(C(=O)CCC(=O)O)CC2 (configuration not stated) | 12
O=C(COc1ccccc1)N1CCN=C1SCc1ccc(F)cc1 | 27
CC(C)CCn1c(=O)c(C(=O)N/N=C/c2cccc(F)c2)c(O)c2ccccc21 | 6
Cc1cccc2nc(CSc3ccccc3C(=O)O)cn12 | 23
CCc1ccc(C(=O)NC(=S)Nc2ccc3c(c2)OCCO3)cc1 | 12
Cc1cc2ncc(C(=O)Nc3ccsc3C(=O)O)c(C)n2n1 | -1
O=C(Cc1ccccc1)N/N=C/c1ccc(S(=O)(=O)O)o1 | 15
Cc1ccnc(NC(=O)Nc2cccc(F)c2)n1 | 11
COc1ccc(/C=C2\SC(=O)NC2=S)cc1OC | 10
COC(=O)c1ccc(CNC(=O)COC(=O)Cc2ccsc2)cc1 | -9
Cc1ccc(CSCC(=O)Nc2c(C)n(C)n(-c3ccccc3)c2=O)cc1 | 12
N#C/C(=C(/O)COC(=O)CSc1ccc2ccccc2c1)c1nc2ccccc2[nH]1 | 12
c1cncc(CNc2ncnc3sc4c(c23)CCC4)c1 | 11
Cc1ccc(NC(=O)COC(=O)CCC(=O)c2cccs2)c(C)c1 | 14
COc1ccc(/C=C/C(=O)NC(=S)N2CCSCC2)cc1 | 5
Cc1ccccc1OCC(=O)OCC(=O)Nc1cc(C(F)(F)F)ccc1N1CCOCC1 | 8
O=C(c1ccc(S(=O)(=O)N2CCCC2)cc1)N1CCCCCC1 | -2
O=C(CN1C(=O)C2C3C=CC(C3)C2C1=O)OCC(=O)c1ccccc1 (configuration not stated) | 18
NC(=O)c1c(NC(=O)CN2C(=O)NC(Cc3ccccc3)C2=O)sc2c1CCC2 (configuration not stated) | 24
N#C/C(=C(/O)c1ccc(C(=O)c2ccccc2)cc1)c1nc2ccccc2[nH]1 | 13
Cc1ccc(NC(=O)CSc2ccc(C(N)=O)cc2[N+](=O)[O-])cc1 | 16
CCCn1c(SCC(=O)N2c3ccc(F)cc3CCC2C)nnc1-c1ccccn1 (configuration not stated) | 13
Cc1ccc2c(c1)sc(C)[n+]2CCCS(=O)(=O)[O-] | 16
CC(=O)C(Sc1nccc(-c2cccs2)n1)C(C)=O | -1
N/C(Cc1cccc2ccccc12)=N\OC(=O)Cc1cccs1 | 11
O=C(NC1CCCCC1)C(c1ccc(F)cc1)N(Cc1ccco1)C(=O)CN1C(=O)c2ccccc2S1(=O)=O (configuration not stated) | 15
COc1ccc(CNC(=O)C(c2ccc(C)o2)N(Cc2cccs2)C(=O)Cc2cccs2)cc1 (configuration not stated) | 8
Cc1ccc2[nH]c(=O)c(CN(Cc3cccnc3)C(=S)NCCCN(C)C)cc2c1 | 19
COC(=O)c1cn(C(=O)c2ccc(Cl)cc2)c2ccccc12 | 7
CC1(C(=O)NNC(=O)C2CCCCC2)CC1(Cl)Cl (configuration not stated) | 15
CC1(C)CC2(CC(c3ccccc3F)c3ccc(O)c(O)c3O2)NC(=S)N1 (configuration not stated) | 23

The list goes on, starting with the last six of the part before.
SMILES | Biofilm kill mix
O=C(NC1CCCCC1)C(c1ccc(F)cc1)N(Cc1ccco1)C(=O)CN1C(=O)c2ccccc2S1(=O)=O (configuration not stated) | 15
COc1ccc(CNC(=O)C(c2ccc(C)o2)N(Cc2cccs2)C(=O)Cc2cccs2)cc1 (configuration not stated) | 8
Cc1ccc2[nH]c(=O)c(CN(Cc3cccnc3)C(=S)NCCCN(C)C)cc2c1 | 19
COC(=O)c1cn(C(=O)c2ccc(Cl)cc2)c2ccccc12 | 7
CC1(C(=O)NNC(=O)C2CCCCC2)CC1(Cl)Cl (configuration not stated) | 15
CC1(C)CC2(CC(c3ccccc3F)c3ccc(O)c(O)c3O2)NC(=S)N1 (configuration not stated) | 23
CCOC(=O)C1CCN(S(=O)(=O)c2ccc3[nH]c(=O)c(=O)[nH]c3c2)CC1 | 0
CC(C)c1ccc(NS(=O)(=O)c2ccc(N3C(=O)CCC3=O)cc2)cc1 | 11
Cc1ccc(C(=O)N2CC(=O)Nc3ccccc32)o1 | 18
NC(=S)c1ncc(C(F)(F)F)cc1Cl | 15
O=C(CN1C(=O)c2ccccc2C1=O)NCc1ccc(N2CCOCC2)cc1 | 21
C=CCNC(=O)CSc1nc2scc(-c3ccco3)c2c(=O)n1CC=C | 13
O=C(NCCc1c[nH]c2ccccc12)C(=O)NCC1OCCN1S(=O)(=O)c1cc(F)ccc1F (configuration not stated) | 16
CCCCCCC(=O)N(O)C1CC(=O)N(c2ccc(F)cc2)C1=O (configuration not stated) | 12
C/C(=N\Nc1ccc([N+](=O)[O-])cc1)c1cc2ccccc2o1 | 9
c1ccc2c(c1)nnn2CNc1nccs1 | 12
CC(C)N=C1CC(C)(C)CC(=O)/C1=C(/O)CCCN1C(=O)c2ccccc2C1=O | 21
Cc1c(Cl)cccc1NC(=O)CSC(N)=O | 16
Cc1cc(C)cc(N(C(=O)c2csnn2)C(C(=O)NC(C)(C)C)c2ccccn2)c1 (configuration not stated) | 8
Cc1ccc(NC(=O)c2ccncc2)cc1S(=O)(=O)N(C)C | 14
O=C(CSc1ccccc1)Nc1ccc(C(=O)Nc2cccc(O)c2)cc1 | 8
CCN(CC)C(=O)C(=O)N/N=C/c1ccc(Cl)cc1Cl | -2
Cc1noc(C)c1NC(=O)N1CCN(Cc2ccccc2)CC1 | -4
CN(Cc1nc(-c2cccs2)no1)CC(O)c1ccccc1 (configuration not stated) | 4
Cc1ccc(N(C(=O)c2nsc(Cl)c2Cl)C(C(=O)NC2CCCC2)c2ccc(O)cc2)cc1C (configuration not stated) | 22
COc1ccc2c(c1)nc(NCCO)n2C | 9
COc1ccc(-n2nc([N+](=O)[O-])c(=NCCc3ccc(C)cc3)n2O)cc1 | 32
O=C(/C=C\c1cn(-c2ccccc2)nc1-c1cccs1)N1CCOCC1 | 19
CCN(CC)S(=O)(=O)c1cc(C(=O)OCC(=O)Nc2cccc(S(=O)(=O)N(C)C)c2)ccc1F | 11
O=C(NNC(=S)Nc1ccccc1)c1cccs1 | 15
COC(=O)c1ccc(N(C(=O)c2ccco2)C(C(=O)NC2CCCC2)c2ccco2)cc1 (configuration not stated) | -12
COc1ccc(-c2nc3c(-c4ccc(F)cc4)cnn3cc2C)cc1F | 5
O=C(O)C(C/C(=N/O)c1ccc(Br)cc1)P(=O)(c1ccccc1)c1ccccc1 (configuration not stated) | 17
CC12C=CC3(O1)C(C(=O)N(c1ccccc1)C3C(=O)NC1CCCC1)C2C(N)=O (configuration not stated) | 10
CC(=C/c1ccc(C(C)C)cc1)/C=N/NC(=O)Cn1nc(C)cc1C | 11
CC1CCCCC1NC(=O)/C(C#N)=C/c1ccc(F)c(F)c1 (configuration not stated) | 15
COc1ccc(C2=Nn3c(nnc3-c3cc(C)[nH]n3)SC2)cc1 | 11
O=C(Nc1cccc(-c2ccc3nncn3n2)c1)c1ccco1 | 10
Cc1ccc(OCCNC(=O)C2CCCCC2)cc1 | 1
CC1CCN(CCC(=O)N/N=C/c2ccc([N+](=O)[O-])cc2)CC1 | 5
CCC(=O)Nc1cccc(NC(=O)c2ccc(C)cc2Cl)c1 | 17
COc1ccc(CSc2nnc(C)s2)cc1F | 9

The list goes on; it opens with the 7 that closed the last part.
SMILES | Biofilm kill mix
CC1CCCCC1NC(=O)/C(C#N)=C/c1ccc(F)c(F)c1 (configuration not stated) | 15
COc1ccc(C2=Nn3c(nnc3-c3cc(C)[nH]n3)SC2)cc1 | 11
O=C(Nc1cccc(-c2ccc3nncn3n2)c1)c1ccco1 | 10
Cc1ccc(OCCNC(=O)C2CCCCC2)cc1 | 1
CC1CCN(CCC(=O)N/N=C/c2ccc([N+](=O)[O-])cc2)CC1 | 5
CCC(=O)Nc1cccc(NC(=O)c2ccc(C)cc2Cl)c1 | 17
COc1ccc(CSc2nnc(C)s2)cc1F | 9
O=C1c2cc(S(=O)(=O)NCCO)ccc2-c2ccc(S(=O)(=O)NCCO)cc21 | 12
O=C(Nn1c(C2CCCCC2)nc2ccccc2c1=O)c1ccc([N+](=O)[O-])cc1 | 13
Cc1c(N(CC(=O)O)S(=O)(=O)c2ccccc2)c(=O)n(-c2ccccc2)n1C | 8
CN1CCN(c2ccc(CNS(=O)(=O)c3ccsc3)cc2)CC1 | 4
CCn1cc(C(=O)OCC(=O)N2C(C)CCCC2C)c(=O)c2ccc(C)nc21 (configuration not stated) | 1
CSc1ccc(CN(C)CC(=O)Nc2cccc(Br)c2)cc1 | 8
CC1CCCC(C)N1/N=C/c1ccccc1C(=O)O (configuration not stated) | 10
Cc1nn(C(C)C(=O)NCc2ccco2)c(C)c1[N+](=O)[O-] (configuration not stated) | 14
CO/N=C/c1cccn1-c1nccc(N(C)C)c1C#N | 17
c1ccc(C2CC3CC(c4ccccc4)N2O3)cc1 (configuration not stated) | 16
CN(C)C(=O)CSc1nc(-c2ccccc2)c(-c2ccccc2)o1 | -3

Compounds shown so far that contain a COOH group (six):
SMILES | Biofilm kill mix
COc1cc2c3c(c1OC)C1(C=CC(=O)C=C1)CC3N(C(=O)CCC(=O)O)CC2 (configuration not stated) | 12
Cc1cccc2nc(CSc3ccccc3C(=O)O)cn12 | 23
Cc1cc2ncc(C(=O)Nc3ccsc3C(=O)O)c(C)n2n1 | -1
O=C(O)C(C/C(=N/O)c1ccc(Br)cc1)P(=O)(c1ccccc1)c1ccccc1 (configuration not stated) | 17
Cc1c(N(CC(=O)O)S(=O)(=O)c2ccccc2)c(=O)n(-c2ccccc2)n1C | 8
CC1CCCC(C)N1/N=C/c1ccccc1C(=O)O (configuration not stated) | 10

Source: PubChem BioAssay (PCMD)
